# Screens as filed in PubChem.
# eIF4H FP inh: human eIF4H binding inhibitors, primary screen, translation initiation inhibitor project, biochemical, uHTS, fluorescence polarization | eIF4H fluorescence polarization binding assay | inhibition, % at 35 µM | 290,000 compounds, 0.94% hits;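 active = 50% or more with normal probe brightness, or confirmed in later tests; inconclusive = above 50% with abnormal brightness, or retests that disagree; inactive = below 50% or failed in later tests; about a fifth of its hits are not listed in these tables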;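 note: calls also rest on retests at 20 µM and on dose response follow-up; 0% = protein and probe with vehicle and 100% = probe without protein; strong numbers were not always called active; many hits fall short of the cut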
# Rce1 inhib: yeast Rce1p protease inhibitors, primary screen, biochemical, fluorescence, cell-free homogeneous | AID 2563, 2010 | yeast membranes, quenched prenylated peptide cleavage fluorescence | 290,000 compounds, 0.27% hits | calls only | CAAX prenyl protease 2 (Saccharomyces cerevisiae (strain ATCC 204508 / S288c)), Q03530;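 active = fall in fluorescence gain of 50% or more versus controls, with final raw signal at or below 3038400; inconclusive = same 50% fall but final raw signal above 3038400; inactive = fall in fluorescence gain under 50%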;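 note: plate controls were neutral control wells for no effect and wells lacking membranes for full effect; tested at 10 µM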
# HIV Env fusion: inhibitors of HIV-1 Env-driven cell-cell fusion, primary screen, HeLa-JRFL effector, CEM21 target cells, luciferase | inhibition, % at 12.3 µM | 360,000 compounds, 1.1% hits;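 active = mean replicate inhibition score of at least 50 and every replicate individually at or above 50; inconclusive = only one of the two criteria met; inactive = mean below 50 and not all replicates reaching 50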;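 note: 0% = plate neutral controls and 100% = maraviroc near 300 nM; one replicate is shown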
# CSC inhib: cancer stem cell viability inhibitors, primary screen, luminescence | cancer stem cell-like cells viability | inhibition, % at 7.5 µM | 300,000 compounds, 1.1% hits | AID 2717, 2010;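 active = mean at 75% or more and at least half the replicates too; inconclusive = mean and replicates disagree; tested in HMLE shEcad cells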;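 note: 0% = median of negative and 100% = median of positive control wells; the first replicate is given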
# UUG fidelity: modulators of yeast start codon fidelity, primary screen, whole organism, S. cerevisiae, single point, plate reader; AID 602363, 2012; S. cerevisiae UUG-firefly luciferase reporter, luminescence/redox ratio; activity score, % at 18.7 µM; 350,000 compounds, 0.13% hits;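 active = replicate mean at a twofold rise or more, about +100% in these data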;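 note: firefly luciferase made from a UUG start codon reports start codon fidelity; reporter light over untreated wells divided by growth signal over untreated wells; some hits fall short of that in this replicate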
# PABP polyA inh: PABP poly(A) RNA binding inhibitors, primary screen, biochemical, fluorescence polarization, uHTS; 290,000 compounds, 1% hits; inhibition, % at 35 µM; AID 2014, 2009;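 active = 50% or more with normal probe brightness, or confirmed in later tests; inconclusive = above 50% with abnormal brightness, or retests that disagree; inactive = below 50% or failed in later tests; about a fifth of its hits are not listed in these tables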;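 note: calls also rest on retests at 20 µM and on dose response follow-up; controls were probe without protein and protein plus probe with vehicle; some compounds called inactive have numbers as strong as hits; many hits fall short of the cut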
# Target sequence (P11940 whole entry, looked up): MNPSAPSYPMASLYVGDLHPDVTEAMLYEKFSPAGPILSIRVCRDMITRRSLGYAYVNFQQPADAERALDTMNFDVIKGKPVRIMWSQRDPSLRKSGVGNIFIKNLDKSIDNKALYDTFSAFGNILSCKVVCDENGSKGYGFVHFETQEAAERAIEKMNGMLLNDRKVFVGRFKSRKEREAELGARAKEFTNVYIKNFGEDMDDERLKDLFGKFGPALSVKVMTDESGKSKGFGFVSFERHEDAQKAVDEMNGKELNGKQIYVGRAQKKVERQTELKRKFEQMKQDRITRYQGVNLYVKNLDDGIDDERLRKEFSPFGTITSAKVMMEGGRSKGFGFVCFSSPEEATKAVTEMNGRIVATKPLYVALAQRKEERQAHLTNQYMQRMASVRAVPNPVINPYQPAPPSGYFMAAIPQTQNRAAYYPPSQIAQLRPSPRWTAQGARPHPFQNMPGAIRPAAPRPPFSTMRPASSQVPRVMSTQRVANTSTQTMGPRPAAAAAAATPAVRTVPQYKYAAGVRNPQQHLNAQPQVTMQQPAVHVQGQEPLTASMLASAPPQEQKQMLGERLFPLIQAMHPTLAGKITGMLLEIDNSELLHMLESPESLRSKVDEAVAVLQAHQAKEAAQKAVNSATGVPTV
# MT1-MMP act inh: blockers of MT1-MMP proenzyme processing, primary screen, HT1080 RFP-PRO-GFP cells, GFP/RFP fluorescence; GFP/RFP ratio change, % at 20 µM; Matrix metalloproteinase-14 (Homo sapiens), P50281; 360,000 compounds, 0.061% hits; GFP/RFP ratio fluorescence, overnight; percent of plate control window, DMSO zero;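 active = GFP/RFP ratio change of at least 30% with cell ATP level not reduced by more than half and red fluorescence within 50% of control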; note: strong numbers were not always called active
#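 Assay system – RFP-PRO-GFP reporter HT1080 cells · Compound dosing – single dose of 20 µM compound, 1% DMSO final · Incubation – overnight compound exposure at 37 °C · Measure – GFP/RFP fluorescence ratio · Benchmarks – DMSO wells and RFP-L50D-GFP cells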
# eIF4H FP inh retest: recorded beside eIF4H FP inh, whose call it bears; inhibition, %; compound at 20 µM; confirmation average;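 mean of two retest wells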
# PABP polyA inh retest: second read-out of PABP polyA inh, no call of its own (marks repeat the call); inhibition, %; compound at 20 µM; confirmation repeats;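 mean of two retest wells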
# MT1-MMP act inh RFP: further read-out of MT1-MMP act inh, marked with its call; RFP signal change, %; measured here: RFP expression control read;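 0 = vehicle wells; hits needed this value within 50% of zero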
# Active calls of the source: *; i = inactive; ? = inconclusive; nt = not tested or not shown.
SMILES,eIF4H FP inh,Rce1 inhib,HIV Env fusion,CSC inhib,UUG fidelity,PABP polyA inh,MT1-MMP act inh,MT1-MMP act inh RFP,others
Cc1ccc(NC(=O)Cn2nc(C(=O)O)c3ccccc3c2=O)cc1S(=O)(=O)N1CCCCC1,nt,nt,-15,3,-9,nt,9,3,
O=c1cc(-c2ccccc2)nc(N2CCN(Cc3ccccc3)CC2)[nH]1,-5,i,nt,-7,-8,1,-4,0,
Cn1c(=O)c2[nH]c(CN(Cc3ccccc3)Cc3ccccc3)nc2n(C)c1=O,-13,i,-148,19,4,-4,-28,-14,
CN(C)c1ccc(-n2cccc2/C=N/n2cnnc2)cc1,-2,i,nt,-6,-26,3,3,8,
CCOC(=O)c1cccc(NC(=O)CSc2nnc(C)n2CC2CCCO2)c1 (centres undefined),-1,i,3,-8,-12,6,1,1,
O=C(NCCCn1ccnc1)C(=O)NCC1OCCCN1S(=O)(=O)c1ccccc1 (centres undefined),56,i,-17,-17,-13,20,4,7,eIF4H FP inh retest=-9;PABP polyA inh retest=7
CCSc1nc2[nH]ncc2c(=O)[nH]1,6,i,1,-3,nt,10,0,2,
Cc1c(O)ccc(/C(Cc2ccc3ccccc3n2)=N\N)c1O,-12,i,-61,58,nt,1,-24,1,
O=C(OCc1nnc(-c2ccc(Cl)cc2)o1)c1ccc(=O)n(Cc2ccccc2)n1,-8,i,nt,-11,-7,-2,-6,3,
S=c1nc2c(n[nH]1)c1ccccc1n2CCc1ccccc1,-10,nt,21,2,-19,3,5,-1,
Cc1ccc(C)c(Cn2nnc3c(=O)[nH]c(C4CCCN(C(=O)CC(C)C)C4)nc32)c1 (centres undefined),-9,i,nt,6,3,7,4,-6,
COc1ccc([N+](=O)[O-])cc1NC(C)C,3,i,6,1,-17,4,0,7,
Clc1ccccc1-c1nc(-c2ccc(Br)o2)no1,-2,i,-92,-9,-42,22,-6,-3,
CSCCC(NC(=O)COc1ccccc1)C(=O)N1CCN(c2ccccc2)CC1 (centres undefined),nt,nt,3,-16,-16,nt,1,-4,
C#CCOCCOCCOCCNc1nc(N2CCN(C(=O)C([C@@H](C)CC)n3cc(C(N)CC(C)C)nn3)CC2)nc(N2CCN(C(=O)[C@H](CCC(=O)O)n3cc(C(N)Cc4ccc(O)cc4)nn3)CC2)n1 (some centres undefined),60,i,nt,-13,7,-3,2,1,eIF4H FP inh retest=5;PABP polyA inh retest=4
Cc1nn(-c2ccccc2)c(C)c1NC(=O)COc1ccccc1C#N,nt,nt,2,nt,-28,nt,1,-1,
CCN(C(=O)COC(=O)CCc1ccc(OC)cc1)c1c(N)n(Cc2ccccc2)c(=O)[nH]c1=O,nt,nt,-132,nt,-3,nt,-4,1,
O=C(Cn1c(=O)c2cccn2c2ccccc21)NCc1cccc(F)c1,-8,i,-27,-12,-5,8,2,1,
CCCc1nc(SCC(=O)Nc2nc3c(s2)CCCC3)c2ccccc2n1,-11,i,nt,65,-11,-6,-4,1,
CCCNCc1cc(OCC)c(OCC(N)=O)cc1Br,-4,i,nt,-17,-15,15,-4,3,
COc1ccccc1N1CCN(C(=O)CC2NC3CCCCC3NC2=O)CC1 (centres undefined),7,i,nt,-19,nt,-4,nt,nt,
OC[C@H]1O[C@H](OCCc2ccc(O)cc2)[C@H](O)[C@@H](O)[C@@H]1O,nt,nt,-35,4,-23,nt,-1,4,
CCOc1cccc(C2C(C(=O)c3ccc(C)o3)=C(O)C(=O)N2Cc2ccccc2)c1 (centres undefined),-8,i,-27,nt,-17,11,0,3,
N#CC1=C(N)N(c2ncn[nH]2)C2=C(C(=O)CCC2)C1c1ccc(F)cc1 (centres undefined),12,i,5,-11,nt,-6,5,7,
CC1(C)CC(CNCCC(c2ccc(F)cc2)c2ccco2)CCO1 (centres undefined),-2,i,-3,25,2,1,1,0,
O=C(NCCC1CCCCN1S(=O)(=O)c1ccccc1)C(=O)NCc1ccncc1 (centres undefined),nt,i,-13,-3,-1,nt,-4,-7,
COc1ccccc1N(CC(=O)Nc1ccc2c(c1)OCCO2)S(=O)(=O)c1ccc(C)cc1,-29,i,-1,4,-14,6,-1,-2,
Cc1ccc(Nc2nc(CSc3nnc(-c4ccncc4)n3-c3ccccc3C)cs2)cc1,-4,i,13,21,nt,-2,-13,-25,
COc1ccc(O)c(C(=O)c2cnc3c(c2)c(C)nn3C)c1,-3,i,9,11,nt,13,1,-1,
Cc1ccc(S(=O)CCNC(=O)Cc2ccccc2)cc1 (centres undefined),0,nt,-68,8,-7,0,-5,4,
CCCCN(C)CCCNC(=O)c1cc(-c2cccnc2)nc2ccccc12,2,i,1,0,-15,8,-2,-2,
CCC(=O)N1CCN=C1SCc1c(F)cccc1Cl,2,i,-17,4,-17,-8,2,-3,
COc1ccc(CC(=O)Oc2ccc(C(C)(C)C)cc2)cc1S(=O)(=O)N1CCOCC1,nt,i,7,-7,-5,nt,2,2,
Cc1ccc(S(=O)(=O)NCCC(=O)OCC(=O)N(Cc2ccccc2)C(C)(C)C)cc1C,nt,i,0,40,10,nt,-4,-2,
Cc1cc(Cl)c2oc(C(=O)N(C)CCCCN3CCOCC3)c(C)c2c1,8,i,8,29,-8,-4,1,-6,
Fc1ccccc1/C=C1\CCCC2=C1Nc1nnnn1C2c1ccccc1F (centres undefined),-3,i,-21,20,-11,-1,-8,-14,
CS(=O)(=O)c1cccc(C(=O)Nc2cccc(-c3nc4ccccc4[nH]3)c2)c1,0,i,-15,21,-6,5,2,-1,
Nc1nc2ncc(C(=O)c3cc(Cl)cc(Cl)c3O)cc2s1,89*,i,-6,16,-9,69,-12,-1,eIF4H FP inh retest=82*;PABP polyA inh retest=47
COC(=O)c1sc(N2CCN(c3ccc(Cl)cc3)CC2)nc1N,2,i,24,0,nt,?,nt,nt,
COc1ccc(S(=O)(=O)N2CCC(C(=O)NCCC(=O)NCCc3cccc(F)c3)CC2)cc1,nt,nt,6,nt,-10,nt,5,2,
Cc1ccc(-n2nc3c(c2NC(=O)c2ccc(OC(C)C)cc2)CS(=O)C3)cc1 (centres undefined),-9,i,-43,-13,-13,6,-1,-4,
Cc1cccc(C)c1NC(=O)c1sc(N)nc1-c1ccccc1,4,i,-6,8,28,0,1,1,
Fc1cccc(CN2CCN(Cc3nc(CCc4ccccc4)no3)CC2)c1,18,i,12,-5,nt,-6,2,-2,
COc1ccc(S(=O)(=O)N2CCC(C(=O)NCC3CC3)CC2)cc1,-4,i,1,-19,nt,6,3,2,
Cc1cc(C)cc(NC(=O)CSc2nc3ccncc3[nH]2)c1,0,i,-7,-4,-1,1,4,1,
CCn1c(CNC(=O)c2cccc(C)c2)nnc1SCC(=O)Nc1nnc(C)s1,0,i,19,nt,-9,5,1,-2,
CN(C/C=C/c1ccccc1[N+](=O)[O-])Cc1ccccc1,0,i,-6,-14,-8,3,3,6,
COC(OC)c1ccnc(-c2ccc(OC(=O)c3ccc(F)cc3)cc2)n1,12,i,-13,-12,nt,-1,1,5,
Cn1nnnc1-c1cc(Br)ccc1NC(=O)c1ccccc1,-2,i,nt,0,-11,-4,-3,-2,
O=C(NCc1ccccc1)c1cc(C2CCCCN2S(=O)(=O)c2ccccc2)on1 (centres undefined),nt,nt,6,nt,0,nt,1,-3,
CN1CCc2c(sc(NC(=O)CS(=O)(=O)c3ccccc3)c2C(N)=O)C1,nt,i,-8,-17,nt,nt,12,6,
COc1ccc(-n2nc(C(=O)NCC(=O)Nc3ccc(F)cc3)c3ccccc3c2=O)cc1,-7,i,0,13,-22,1,-3,-5,
Cc1ccc(OCC(=O)Nc2cccc(O)c2)cc1C,12,i,-182,24,-36,6,8,-4,
Cc1cccc(OCCN2CCOCC2)c1C,-2,i,-5,-5,-16,5,0,3,
CCC(C)(C)NC(=O)c1cc(S(=O)(=O)N2CCCCC2)ccc1N1CCOCC1,-5,i,0,-7,-10,6,-1,1,
Cc1ccc(C)c(OCCCCn2cnc3ccccc3c2=O)c1,1,i,nt,-11,2,0,-3,-4,
CCC(C)n1c(SCC(=O)NC(=O)c2cccn2C)nc2ccccc2c1=O (centres undefined),-2,i,13,3,nt,8,0,-3,
Cc1ccn2c(=O)c(NC(=O)c3cccs3)c(C)nc2c1,nt,i,-16,-4,-1,nt,4,2,
CC(C)(C)OC(=O)CC(S(=O)(=O)c1ccccc1)S(=O)(=O)c1ccccc1,nt,nt,22,nt,-14,nt,1,4,
Oc1cc2c(cc1O)C(c1ccccc1)CNCC2 (centres undefined),nt,i,-6,-5,-13,nt,2,2,
# Following part.
SMILES,eIF4H FP inh,Rce1 inhib,HIV Env fusion,CSC inhib,UUG fidelity,PABP polyA inh,MT1-MMP act inh,MT1-MMP act inh RFP,others
CCCCC[C@@H]1C=C(C(=O)O)[C@H](c2ccc(Cl)cc2)N1S(=O)(=O)c1ccc(C)cc1,nt,nt,-10,nt,1,nt,7,2,
CN(C)c1ccc(/C=N/NS(=O)(=O)c2ccc(Br)cc2)cc1,-4,i,-50,-4,-2,-2,2,4,
COC(=O)c1cc(-c2cc(OC)ccc2OC)nc2c1c(=O)n(C)c(=O)n2Cc1ccccc1,-6,i,6,26,nt,-11,-2,-8,
CC(C)CN(C(=O)c1ccc(F)cc1F)c1c(N)n(CC(C)C)c(=O)[nH]c1=O,2,nt,3,5,-16,-1,2,6,
Cc1cc(C)c2nc(NC(=O)CN3C(=O)NC4(CCCC4)C3=O)sc2c1,nt,i,3,2,nt,nt,-5,-3,
COc1cc2c(cc1NC(=O)C(C)OC(=O)/C=C/c1ccc(OC(F)F)cc1)oc1ccccc12 (centres undefined),-8,i,-12,7,nt,3,-4,-4,
CCCC(=O)N1CCCC1(C)C(=O)Nc1ccc(-n2cncn2)cc1 (centres undefined),nt,nt,15,nt,-16,nt,0,6,
O=C(CN1CCN(S(=O)(=O)c2ccccc2Cl)CC1)NCC1(N2CCOCC2)CCCCC1,nt,nt,-2,nt,-15,nt,1,0,
Cc1ccc(CS(=O)(=O)CCC(=O)NCc2ccccn2)cc1,-8,i,nt,-15,-21,-2,0,1,
Cc1cccc(S(=O)(=O)NNC(=O)c2cc(-c3ccc(F)cc3)nc3ccccc23)c1,-5,i,7,-5,-9,8,1,-5,
C[C@@H]1CN(Cc2nc(-c3ccc(Cl)cc3)no2)C[C@H](C)O1,0,i,24,-1,nt,0,3,-5,
COc1ccc(NC(=O)C2CCN(S(=O)(=O)c3ccc4c(c3)NC(=O)CO4)CC2)cc1,-6,i,8,3,-8,11,0,-2,
Cc1cc(C)c(CN2CCN(C(=O)Cn3ccc(NC(=O)OCc4ccccc4)nc3=O)CC2)c(C)c1,nt,nt,72*,-17,2,nt,4,-21,
COC(=O)CCNC(=O)Cn1cnc2sc3c(c2c1=O)CCCC3,6,i,22,-7,nt,1,3,4,
CCCC(=O)Nc1ccc2c(c1)Cc1ccccc1-2,-4,i,-52,-5,6,6,2,-2,
